D2 PAM = potentiates the human D2 dopamine receptor allosterically; DiscoveRx D2 beta-arrestin cells, luminescence, 90 min; 100% = 57 uM dopamine signal; potentiation, % (test concentration not listed); 360,000 compounds, 0.23% hits; active = potentiation of 50% or more; inconclusive = 30% to 50%; inactive = 30% or less;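 further: compound concentration not given in the record; tested on top of an EC20 dose of dopamine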
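D2 cells co-treated with compound plus 50 nM dopamine (EC20) for 90 min at 37 deg C to detect potentiation. Beta-arrestin recruitment was read as enzyme-fragment luminescence after 1 h at ambient temperature. Full response was set by 57 uM dopamine.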
Sfp inh = inhibitors of Bacillus subtilis Sfp phosphopantetheinyl transferase; Biochemical Sfp PPTase activity, qHTS; Q9F4F7; Potency, µM, inactives show max response, negative = inhibition, most hits filed as inhibitors; 310,000 compounds, 3.5% hits; active means well fitted inhibition curve with a large enough effect; inconclusive means small, poorly fitted or top-dose-only effect, or another doubt; inactive means no such curve, though single readings can be large or run the other way;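 further: the enzyme is Sfp with the accession as filed and its product quenches rhodamine fluorescence; potency means the concentration at half of the fitted maximal effect; 0% = enzyme reaction without inhibitor and -100% = no enzyme wells; top concentration of the series not given in the record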
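With Hepes-Na pH 7.6 buffer containing 10 mM MgCl2, Sfp (15 nM) modified BHQ-2-YbbR (12.5 uM) using rhodamine-CoA (5 uM). Two reads 30 minutes apart at 525/598 nm yielded each well's rate.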
Menin-MLL FL inh = displaces fluorescein MLL peptide from human menin. Fluorescence polarization, fluorescein-MLL peptide displacement from menin. FP activity change, % at 61.4 µM. 290,000 tested, under 10 active. AID 1766; inconclusive = falling polarisation curve, or a change in total fluorescence; inactive = total fluorescence flat and polarisation flat or rising; no compound was filed as active; the % refers to the polarisation; negative = inhibition;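 further: % of control where 0% means no effect; inhibitors lower the polarisation; unlabelled MLL peptide was the positive control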
TRPV1 potentiator = potentiators of human vanilloid receptor 1 (TRPV1) | TRPV1-expressing cells, Fluo-8 calcium influx, capsaicin EC20 potentiation; host cell line not named in the record; control for the full effect not named in the record | 320,000 compounds, 0.02% hits | potentiation, % at 8.33 µM; active means potentiation above 80%; inconclusive means 30% to 80%; inactive means below 30%; further: 0% is about no effect
Target sequence (Q8NER1 whole entry, looked up): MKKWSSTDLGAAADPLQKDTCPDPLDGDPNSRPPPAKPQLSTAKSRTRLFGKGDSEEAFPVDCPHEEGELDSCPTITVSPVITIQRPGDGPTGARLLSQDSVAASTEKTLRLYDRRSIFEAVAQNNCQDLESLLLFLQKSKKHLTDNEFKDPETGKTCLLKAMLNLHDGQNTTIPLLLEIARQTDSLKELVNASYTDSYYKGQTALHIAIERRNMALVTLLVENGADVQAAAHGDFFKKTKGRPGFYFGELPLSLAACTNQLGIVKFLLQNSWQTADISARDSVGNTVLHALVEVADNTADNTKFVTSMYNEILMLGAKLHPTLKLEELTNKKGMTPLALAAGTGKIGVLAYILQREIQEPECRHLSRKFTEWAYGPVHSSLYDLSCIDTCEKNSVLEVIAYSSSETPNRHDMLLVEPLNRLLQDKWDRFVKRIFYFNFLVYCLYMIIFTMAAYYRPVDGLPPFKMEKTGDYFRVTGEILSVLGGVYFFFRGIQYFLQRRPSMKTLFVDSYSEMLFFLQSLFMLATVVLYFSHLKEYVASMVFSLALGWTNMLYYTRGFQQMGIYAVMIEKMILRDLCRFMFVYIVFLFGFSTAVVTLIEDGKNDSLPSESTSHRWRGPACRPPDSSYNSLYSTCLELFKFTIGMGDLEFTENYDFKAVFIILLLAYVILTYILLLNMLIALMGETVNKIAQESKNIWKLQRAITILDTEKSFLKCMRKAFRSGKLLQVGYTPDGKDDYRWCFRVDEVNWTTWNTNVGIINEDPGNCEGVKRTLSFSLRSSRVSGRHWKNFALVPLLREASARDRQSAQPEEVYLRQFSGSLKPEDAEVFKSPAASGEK
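TRPV1-expressing cells were cultured overnight at 35.5C and loaded with Fluo-8 calcium dye for 40 to 90 min at room temperature. After a 10 s baseline, compound was added and calcium influx was read kinetically for 3 min (ex 480/em 520 nm).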
gsp ag = activates gsp, the McCune-Albright syndrome mutation; AID 624287; Potency, µM (highest dose often 76.9 µM), for inactives: at the highest dose activation (cAMP increase), hits mostly activators; 340,000 compounds, 0.13% hits; gsp mutant cells, cAMP HTRF, 30 min; control for the full effect not named in the record; active = well fitted activation curve with a large enough effect; inconclusive = small, poorly fitted or top-dose-only effect, or another doubt; inactive = no such curve, though single readings can be large or run the other way; cell line not stated here;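 further: phosphodiesterase inhibitor Ro 20-1724 added with compounds to block cAMP breakdown; potency means the concentration at half of the fitted maximal effect; nearly all actives have a fitted effect of over 60% in size; about a fifth of the inactives were tested at one dose only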
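Cells in DMEM/10% FBS with G418 were pretreated with compounds in DMSO plus […] (300 uM stock) for 30 min at 37C. cAMP was measured by HTRF (cAMP-d2 plus anti-cAMP antibody-K) after 30 min at room temperature.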
ClpP mod = qHTS Assay for Activators of ClpP; ATP-dependent Clp protease proteolytic subunit (Bacillus subtilis (strain 168)), P80244; purified B. subtilis ClpP, FRET peptide cleavage, 20 min; Potency, µM (titrated, usually from 57.5 µM), inactives show at the top dose activity change, negative = active; 340,000 compounds, 1.9% hits; AID 651965, 2013; active = well fitted falling curve with a large enough effect; inconclusive = small, poorly fitted or top-dose-only effect; inactive = no such curve, though single readings can be large or run the other way; further: potency means the concentration at half of the fitted maximal effect; the source files actives as falling curves though it sought activators and does not explain the sign; nearly all actives have a fitted effect of over 65% in size; many hits overshoot -100%
Target sequence (P80244 whole entry, looked up): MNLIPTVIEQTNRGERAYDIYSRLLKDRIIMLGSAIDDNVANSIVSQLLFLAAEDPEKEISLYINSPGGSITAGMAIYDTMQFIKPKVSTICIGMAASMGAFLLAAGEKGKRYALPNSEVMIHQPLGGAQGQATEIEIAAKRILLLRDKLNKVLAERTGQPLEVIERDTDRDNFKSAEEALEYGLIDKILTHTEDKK
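Purified B. subtilis ClpP, 10 microg/mL final in Tris/HCl pH8 with KCl, BSA, glycerol and Tween-20, cleaved an Abz/nitrotyrosine-quenched decapeptide. Fluorescence (ex 320, em 430) was read at 0 and 20 min at room temperature. Delta was normalized to 5.8 microM ADEP and DMSO/no-enzyme controls.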
gsp antag = gsp mutant antagonism; Potency, µM (doses to about 76.9 µM), for the others: at the highest dose activity change, negative = inhibition, actives largely listed as inhibitors; gsp-mutant cells, cAMP HTRF, 30 min; control for the full effect not named in the record; 340,000 compounds, 0.4% hits; active = falling curve of any shape with a large fitted effect; inconclusive = falling curve, mostly with a smaller effect; inactive = flat or rising curve; cell line not stated here;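 further: intracellular cAMP measured with PDE inhibitor Ro 20-1724 present during compound exposure; potency means the concentration at half of the fitted maximal effect; on the % scale 0 is the no-effect control and ±100 the full control effect; nearly all actives have a fitted effect of over 65% in size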
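HTRF cAMP read-out (cAMP-d2 plus anti-cAMP antibody-K in lysis buffer, 30 min RT). Before lysis, cells are exposed to compounds with […] for 30 min at 37C in DPBS containing Ca/Mg, BSA and Tween 20.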
Starred values were filed as active, the others as inactive; [ ] = another dose, or the depositor's remark.

For COc1cc(/C=C2\SC(=S)N(C(Cc3ccccc3)C(=O)O)C2=O)ccc1O (stereo not given) the results were D2 PAM -21.5, Sfp inh inconclusive, Menin-MLL FL inh inconclusive, TRPV1 potentiator 5.3, gsp ag 15.1%, ClpP mod 0.6% and gsp antag -1.2%.
Screening COc1cc(OC)cc(C(=O)NC(C(=O)Nc2ccc3c(c2)OCO3)C(C)C)c1 (stereo not given) returned D2 PAM -14.2, TRPV1 potentiator -21.9, gsp ag -0.9%, ClpP mod -6.3% and gsp antag 3.7%.
`COCCN1C(=O)N(c2ccc(OC)cc2)C(=O)C1CC(=O)Nc1cccc(F)c1` (stereo not given) gave D2 PAM -1.9, Sfp inh 14.6%, Menin-MLL FL inh 0.1, TRPV1 potentiator -10.6, gsp ag 2.9%, ClpP mod 0.5% and gsp antag -4.2%.
`O=c1nc2onnc2c(C=NO)[nH]1` gave D2 PAM -4.8, gsp ag -5.6%, ClpP mod 1.7% and gsp antag -9.1%.
COc1ccccc1NC(=S)NCc1cccs1 was read as D2 PAM -15.1, Sfp inh 2.7%, Menin-MLL FL inh 3.5, TRPV1 potentiator -4.9, gsp ag inconclusive, ClpP mod 12.6µM* and gsp antag 9.0%.
Screening CCCCCCCN1C2=NCCCN2c2ccccc21 returned D2 PAM -14.5, Sfp inh 9.9%, Menin-MLL FL inh -3.5, TRPV1 potentiator 23.1, gsp ag -8.4% and gsp antag 8.4%.
For O=Cc1cnc(N2CCN(c3ccccc3)CC2)s1 the results were D2 PAM 3.6, Sfp inh 7.9%, Menin-MLL FL inh 1.1, TRPV1 potentiator -3.9, gsp ag 3.1% and gsp antag 3.0%.
For CC(C)C[C@@H](CN)NC(=O)c1nc[nH]c1C(=O)N[C@@H](C)C(=O)CNC[C@H](C)NC(=O)c1nc[nH]c1C(=O)N[C@@H](Cc1ccccc1)C(=O)O the results were D2 PAM -8.3, ClpP mod -1.2% and gsp antag 6.7%.
`Cc1ccc(S(=O)(=O)Oc2ccccc2/C=N/Nc2ccc(C(=O)O)cc2)cc1` gave D2 PAM -8.8, Sfp inh 4.4%, Menin-MLL FL inh 0.4, TRPV1 potentiator 5.2, gsp ag 31.1%, ClpP mod -7.4% and gsp antag -11.3%.
`O=C(CN1C(=O)C2CC=CCC2C1=O)OCCN1C(=O)c2ccccc2C1=O` (stereo not given) gave D2 PAM -3.9, Sfp inh 10.4%, Menin-MLL FL inh 3.5, TRPV1 potentiator -2.0, gsp ag 7.9%, ClpP mod -5.2% and gsp antag 4.4%.
Screening CCC/C=N/NC(=O)c1ccc(F)cc1 returned D2 PAM -4.0, Sfp inh 7.7%, Menin-MLL FL inh 2.3, TRPV1 potentiator -16.1, gsp ag -22.0% and gsp antag 1.0%.
CCOC(=O)c1cnc(Nc2nc3ccccc3o2)nc1CN1CCN(C)CC1 was read as D2 PAM -6.0, Sfp inh 9.3%, Menin-MLL FL inh 1.9, TRPV1 potentiator -6.3, gsp ag 9.7%, ClpP mod 1.1% and gsp antag 9.9%.
O=C(N/N=C/c1sc(N2CCCCC2)nc1-c1cccs1)C1CC1 was read as D2 PAM -0.8, Sfp inh 56.2µM*, Menin-MLL FL inh 2.8, TRPV1 potentiator -7.8, gsp ag inconclusive, ClpP mod 1.3% and gsp antag -21.4%.
COc1ccc(-c2c(C)n([O-])c3c([n+]2=O)CCCCC3)cc1 was read as D2 PAM -11.9, Sfp inh 8.6%, TRPV1 potentiator 5.8, gsp ag -7.5%, ClpP mod 2.6% and gsp antag -5.8%.
`CCOC(=O)c1ccc(OCCOc2cccc(C)c2)cc1` gave D2 PAM 1.4, Sfp inh 15.2%, Menin-MLL FL inh 2.0, TRPV1 potentiator 18.4, gsp ag -21.4%, ClpP mod -0.3% and gsp antag -4.4%.
`Cc1ccc(NC2=C(Cl)C(=O)OC2OC(=O)c2ccccc2C)cc1` (stereo not given) gave D2 PAM 0.4, Sfp inh inconclusive, Menin-MLL FL inh -1.9, TRPV1 potentiator -16.3, gsp ag -21.1% and gsp antag -11.8%.
CC(=O)Nc1cccc(NC(=O)CSc2nc(=O)n(CCCN3CCOCC3)c3c2CCC3)c1 was read as D2 PAM -10.5, TRPV1 potentiator inconclusive, gsp ag 21.0%, ClpP mod 28.2µM* and gsp antag 3.5%.
Screening CCOc1ccc(-c2csc(NC(=O)c3ccc(S(=O)(=O)N4CCc5ccccc5C4)cc3)n2)cc1 returned D2 PAM -3.1, Sfp inh 13.1%, Menin-MLL FL inh 8.3, TRPV1 potentiator -11.2, gsp ag -8.9%, ClpP mod -7.6% and gsp antag 4.2%.
Screening Cc1ccc(C)c(NS(=O)(=O)c2ccc(OCC(=O)NCc3ccccn3)cc2)c1 returned D2 PAM -1.5, Sfp inh 12.8%, Menin-MLL FL inh -5.7, TRPV1 potentiator -3.5, gsp ag -34.7%[inhibitor] and gsp antag 1.8%.
CC(=O)NCc1ccc(S(=O)(=O)N/N=C/c2ccccc2)cc1 was read as D2 PAM -9.5, Sfp inh -1.1%, Menin-MLL FL inh 4.9, TRPV1 potentiator -3.5, gsp ag 0.1%[15.4 µM] and gsp antag 6.4%.
O=C(CNCc1ccccc1)NCCCN1CCCC1=O was read as D2 PAM -5.0, Sfp inh -13.6%, Menin-MLL FL inh 0.7, TRPV1 potentiator 9.5, gsp ag 0.9% and gsp antag 11.1%.
`O=C(Cc1ccc(Br)cc1)OCC(=O)N1CCCCCC1` gave D2 PAM -5.2, gsp ag 1.9%[15.4 µM], ClpP mod 0.3% and gsp antag 8.5%.
For COc1ccc(NC(=O)NCCc2ccc(Cl)cc2)cc1OC the results were D2 PAM -7.8, Sfp inh -1.0%, Menin-MLL FL inh 1.8, TRPV1 potentiator -16.0, gsp ag 5.2%, ClpP mod 1.8% and gsp antag 6.6%.
For NC(=NCCc1c[nH]c2ccccc12)NC(=O)c1ccc(Cl)cc1 the results were D2 PAM -32.0, Sfp inh -28.2%, Menin-MLL FL inh -1.6, TRPV1 potentiator -0.2, gsp ag inconclusive, ClpP mod -2.0% and gsp antag -14.9%.
Screening O=C(CSc1nc2ccccc2c(=O)n1-c1ccc(F)cc1)NC1CCS(=O)(=O)C1 (stereo not given) returned D2 PAM -27.3, TRPV1 potentiator 4.9, gsp ag 2.4%, ClpP mod -2.4% and gsp antag 7.5%.
COc1cc(CO)cc(-c2cc(CO)cc(OC)c2OC)c1OC was read as D2 PAM 13.1, Sfp inh -3.3%, Menin-MLL FL inh -5.3, TRPV1 potentiator -13.7, gsp ag 0.0%, ClpP mod -0.1% and gsp antag -3.1%.
For O=S(=O)(Nc1ccc(-c2ccc3nncn3n2)cc1)c1ccccc1F the results were D2 PAM 10.7, TRPV1 potentiator -4.8, gsp ag inconclusive, ClpP mod 2.0% and gsp antag 6.5%.
For COC(=O)CN1C(=O)NC2(CCCc3ccccc32)C1=O (stereo not given) the results were D2 PAM -9.8, Sfp inh 4.9%, Menin-MLL FL inh 0.5, TRPV1 potentiator 8.7, gsp ag -27.3%, ClpP mod -0.1% and gsp antag 2.9%.
Cc1cc(C)c(C)c(S(=O)(=O)N2CCC(C(=O)OCC(=O)NC3CCS(=O)(=O)C3)CC2)c1C (stereo not given) was read as D2 PAM -29.5, gsp ag 18.4%[15.4 µM], ClpP mod -1.5% and gsp antag -3.0%.
For CCOC(=O)c1cc2c(=O)n3ccccc3nc2n(Cc2ccc(Cl)cc2)c1=N the results were D2 PAM -8.8, gsp ag -67.1%[inhibitor], ClpP mod -7.3% and gsp antag 5.9%.
COc1ccc(Nc2nnc(Cc3ccccc3)c(=O)[nH]2)c(OC)c1 was read as D2 PAM 0.3, Sfp inh 0.2%, Menin-MLL FL inh 4.3, TRPV1 potentiator 3.6, gsp ag -19.8%, ClpP mod -1.9% and gsp antag 1.9%.
For O=C(COC(=O)c1cc(-c2cccs2)nc2ccccc12)NC1CCS(=O)(=O)C1 (stereo not given) the results were D2 PAM -20.2, Sfp inh 9.2%, Menin-MLL FL inh -2.9, TRPV1 potentiator -12.1, gsp ag -1.3%, ClpP mod 4.1% and gsp antag -19.9%.
`Cc1cc(C)n(CC(C)O)c(=O)c1C#N` (stereo not given) gave D2 PAM 6.8, Sfp inh 17.1%, Menin-MLL FL inh -1.2, TRPV1 potentiator 6.1, gsp ag -43.9%, ClpP mod -11.3% and gsp antag 5.1%.
For c1nc(N2CCC3(CC2)OCCO3)c2[nH]cnc2n1 the results were D2 PAM -9.3, Sfp inh 11.1%, Menin-MLL FL inh 6.5, TRPV1 potentiator -10.5, gsp ag 0.9%, ClpP mod 0.6% and gsp antag 9.6%.
For CC(C)[C@@H](C(=O)N[C@@H](Cc1ccccc1)C(=O)O)N1C(=O)N2CCc3c([nH]c4ccccc34)[C@@]2(C)C1=O the results were D2 PAM -12.3, Sfp inh 16.0%, Menin-MLL FL inh 3.8, TRPV1 potentiator 9.7, ClpP mod 2.0% and gsp antag 1.4%.
For CCc1nnc(NS(=O)(=O)c2ccc(NC(=O)c3ccc([N+](=O)[O-])s3)cc2)s1 the results were D2 PAM 18.1, gsp ag -15.3% and ClpP mod 0.6%.
`COc1cccc(C(=O)NCCCn2ccnc2)c1` gave D2 PAM -5.9, Sfp inh -23.6%, Menin-MLL FL inh -4.8, TRPV1 potentiator -5.6, gsp ag 18.8%, ClpP mod -1.1% and gsp antag 7.8%.
O=C(CSc1nnnn1C1CC1)Nc1ccc(S(=O)(=O)N2CCOCC2)cc1 was read as D2 PAM 2.4, TRPV1 potentiator -9.4, gsp ag 7.5%, ClpP mod -1.1% and gsp antag 4.8%.
`COc1ccccc1CNC(=O)COC(=O)c1ccc(NC(N)=O)cc1` gave D2 PAM -0.5, Sfp inh 5.1%, Menin-MLL FL inh -0.1, TRPV1 potentiator 16.2, gsp ag -34.0%[inhibitor], ClpP mod -3.0% and gsp antag 3.4%.

An unsorted share of the library, and some 5.1% of all compounds hit somewhere here.
